Bioassay records from PubChem BioAssay.
TRPML1 agonist: qHTS for Agonists of the Human Mucolipin Transient Receptor Potential 1 (TRPML1) | 410,000 compounds, 0.12% hits | AID 624414, 2012 | activation, % (no concentration beside the values) | Mucolipin-1 (Homo sapiens), Q9GZU1 | TRPML1-expressing cells, Ca2+ dye fluorescence, FDSS; host cell line not named in the record; reference of the full effect not given here; in the data active = activation above about 50%; inconclusive = about 30% to 50%; inactive = below about 30%; note: 0% is about no effect; the text of the record puts the active cut at 80%
Target sequence (Q9GZU1 whole entry, looked up): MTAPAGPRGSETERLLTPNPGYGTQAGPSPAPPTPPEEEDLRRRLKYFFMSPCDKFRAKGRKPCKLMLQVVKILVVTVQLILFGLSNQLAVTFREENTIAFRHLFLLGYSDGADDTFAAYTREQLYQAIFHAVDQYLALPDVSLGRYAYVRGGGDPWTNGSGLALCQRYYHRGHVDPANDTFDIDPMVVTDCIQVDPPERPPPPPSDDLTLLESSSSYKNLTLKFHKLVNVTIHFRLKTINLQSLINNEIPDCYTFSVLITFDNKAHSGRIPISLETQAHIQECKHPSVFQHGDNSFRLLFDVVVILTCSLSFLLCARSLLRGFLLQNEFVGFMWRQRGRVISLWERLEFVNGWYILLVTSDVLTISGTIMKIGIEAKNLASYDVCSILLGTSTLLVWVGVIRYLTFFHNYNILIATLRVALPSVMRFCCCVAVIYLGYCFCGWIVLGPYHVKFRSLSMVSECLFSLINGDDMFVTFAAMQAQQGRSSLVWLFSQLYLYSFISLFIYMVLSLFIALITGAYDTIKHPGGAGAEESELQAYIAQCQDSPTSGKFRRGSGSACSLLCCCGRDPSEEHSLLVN
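Kinetic FDSS Ca2+ read in Tet-induced TRPML1-DL cells (ABD Ca8 dye plus quencher, 45-90 min RT loading): baseline, then compound, then 110 s agonist window; EC80 agonist 54-4 at 4uM final added afterwards for a 110 s antagonist window.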
TRPML1 inh: qHTS for Inhibitors of the Human Mucolipin Transient Receptor Potential 1 (TRPML1) | Mucolipin-1 (Homo sapiens), Q9GZU1 | TRPML1-inducible cells, Ca2+ dye fluorescence, FDSS; hits give low values; inhibition of EC80 agonist-evoked calcium signal | activity change, negative = inhibition, % (test concentration not listed) | 390,000 compounds, 0.02% hits; in the data active means activity change below about -50%; inconclusive means about -30% to -50%; inactive means above about -30%;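 note: stimulus is agonist 54-4 at its EC80 concentration; % is set by controls: 0 for no effect and ±100 for the full control effect; compound concentration not given in the record; the text of the record puts the active cut at -80%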
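TRPML1-DL cells, Tet-induced overnight (~16 h, 37 °C) at 1,500 cells/well, were loaded with Ca8 no-wash dye plus quencher for 45-90 min at room temperature. Compounds were pinned during FDSS kinetic reading; agonist 54-4 at EC80 (4 uM final) then added.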
Six1-Eya2 inh: qHTS Assay for Inhibitors of the Six1/Eya2 Interaction; AID 651725, 2012; activity change, % (concentration not given with the values); Homeobox protein SIX1 (Homo sapiens) + Protein phosphatase EYA2 (Homo sapiens), …; 360,000 compounds, 0.56% hits; AlphaScreen GST-Six1/His-Eya2 binding, biochemical; hits give low values; control for the full effect not named in the record; in the data active = activity change below about -65%; inconclusive = about -30% to -65%; inactive = above about -30%; note: % is set by controls: 0 for no effect and ±100 for the full control effect
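Homogeneous AlphaScreen proximity assay pairing GST-Six1 with His-tagged Eya2 (added as 5X mix: 250 nM and 500 nM) in 50 mM Tris pH 8.0, 300 mM NaCl, 1 mM TCEP. Glutathione donor and nickel acceptor beads; 1 h, 37 °C, dark.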
CtBP-E1A blk: qHTS Assay for Inhibitors of the CtBP/E1A Interaction; activity change, % (no concentration beside the values); AID 651724, 2012; 340,000 compounds, 0.49% hits; AlphaScreen GST-E1A/His-CtBP binding, 1536-well; hits give low values; control for the full effect not named in the record; in the data active means activity change below about -65%; inconclusive means about -30% to -65%; inactive means above about -30%; note: % is set by controls: 0 for no effect and ±100 for the full control effect
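Protein mix (5X: 125 nM each GST-E1A, His-CtBP) was incubated with pinned compound 2 h at 37 deg C in dark, in 50 mM Tris pH 8.0 buffer with 300 mM NaCl. Glutathione donor and nickel acceptor beads followed; AlphaScreen signal read after 1 h.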
TRPV1 potentiator: HTS Assay for Compounds that Act as Potentiators of the Vanilloid Receptor 1; TRPV1-expressing cells, Fluo-8 calcium influx, capsaicin EC20 potentiation; host cell line not named in the record; control for the full effect not named in the record; potentiation, % at 8.33 µM; 320,000 compounds, 0.02% hits; active means potentiation above 80%; inconclusive means 30% to 80%; inactive means below 30%; note: 0% is about no effect
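TRPV1-expressing cells were cultured overnight at 35.5C and loaded with Fluo-8 calcium dye for 40 to 90 min at room temperature. After a 10 s baseline, compound was added and calcium influx was read kinetically for 3 min (ex 480/em 520 nm).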
D2 PAM: Beta-Arrestin HTS for Positive Allosteric Modulators of the Human D2 Dopamine Receptor: Potentiators | DiscoveRx D2 beta-arrestin cells, luminescence, 90 min; 100% = 57 uM dopamine signal | D(2) dopamine receptor (Homo sapiens), P14416 | 360,000 compounds, 0.23% hits | potentiation, % (concentration not given with the values) | AID 624464, 2012; active = potentiation of 50% or more; inconclusive = 30% to 50%; inactive = 30% or less;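 note: tested on top of an EC20 dose of dopamine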
Target sequence (P14416 whole entry, looked up): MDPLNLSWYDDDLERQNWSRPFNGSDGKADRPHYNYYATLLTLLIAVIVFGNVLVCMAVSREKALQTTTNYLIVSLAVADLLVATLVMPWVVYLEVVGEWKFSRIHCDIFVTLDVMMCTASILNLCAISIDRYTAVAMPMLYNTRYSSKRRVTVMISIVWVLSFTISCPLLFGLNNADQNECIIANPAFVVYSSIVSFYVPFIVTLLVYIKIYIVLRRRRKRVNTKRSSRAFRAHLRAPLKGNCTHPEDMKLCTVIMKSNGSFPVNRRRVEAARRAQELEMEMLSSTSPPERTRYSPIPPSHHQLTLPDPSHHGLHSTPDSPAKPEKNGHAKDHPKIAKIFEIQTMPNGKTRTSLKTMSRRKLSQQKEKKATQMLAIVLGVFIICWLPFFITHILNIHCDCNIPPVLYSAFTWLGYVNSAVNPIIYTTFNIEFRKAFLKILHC
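PathHunter beta-arrestin assay in DiscoveRx D2 cells. Compounds were added with an EC20 of dopamine (50 nM final) for 90 min at 37 deg C. Luminescence was read 1 h after detection reagent, with 57 uM dopamine as the EC100 control.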
Numbers without * were called inactive; u = inconclusive; x = not tested or not shown.

SMILES	TRPML1 agonist	TRPML1 inh	Six1-Eya2 inh	CtBP-E1A blk	TRPV1 potentiator	D2 PAM
Cc1ccc(-c2nc(CS(=O)CC(=O)NC3CCCC(C)C3C)c(C)o2)cc1 (stereo not given)	-0.4	7	-1	-6	-6	-12
CC(=O)N1CCN(C(=O)c2cc(S(=O)(=O)Nc3ccc(S(C)(=O)=O)cc3)ccc2Cl)CC1	0.0	10	0	-2	u	-4
Cc1ccc(/C=N/NC(=O)c2c(-c3ccccc3)noc2C)o1	3.0	-12	-3	1	6	-26
Cc1oc2cc3oc(=O)c(CCC(=O)NCCN4CCOCC4)c(C)c3cc2c1C	x	x	0	-1	-7	-21
CCC(=O)N1CCC1(C)C(=O)NS(=O)(=O)c1cccc(C#N)c1 (stereo not given)	0.0	x	13	7	x	-12
O=C(CCC(=O)c1cccs1)NCc1ccccc1	-0.3	-13	-1	0	7	-22
CCc1cccc(C)c1NC(=O)CO/N=C(\C)c1cc2ccccc2o1	0.5	-1	1	10	15	-23
CN(C)CCN(Cc1ccccc1)c1nccc(N(C)C)c1C#N	-0.3	6	-3	15	8	-20
COc1ccc(/C(N)=N/OC(=O)CC2CCCCC2)cc1	1.0	7	20	20	-8	5
CNC(=O)C(C)NS(=O)(=O)c1ccc(F)cc1 (stereo not given)	0.4	1	5	8	2	5
COCCNC(=O)c1c(N)n(CCCn2ccnc2)c2nc3ccccc3nc12	0.2	-7	-19	-29	6	-10
COC(CNC(=O)c1c[nH]c2ccc(S(=O)(=O)N3CCC4(CC3)OCCO4)cc2c1=O)OC	0.8	-11	-1	3	0	-7
COc1ccccc1Cc1c(C2CCCCC2)nc2ccc(Cl)cn12	0.4	x	-3	-13	x	-14
CCOC(=O)c1c(-c2ccccc2)oc2ccc(O)c(CN3CCN(C)CC3)c12	-0.2	-8	-10	3	8	-13
CCCCn1c(N)c(N(CCOC)C(=O)COC(=O)COc2ccc(CC)cc2)c(=O)[nH]c1=O	0.9	5	9	5	6	-69
O=C(NCC1CCCN(C2Cc3ccccc3C2)C1)c1cccs1 (stereo not given)	0.0	0	3	5	-15	-37
CCC(C)N(C(=O)CSc1nc(-c2ccccc2)cs1)C1CCS(=O)(=O)C1 (stereo not given)	-0.1	5	7	-3	-2	-14
NC1=NC2(CCCCC2)N=C(Nc2ccc(F)cc2F)N1	-0.9	-16	0	-3	-1	-7
COC(=O)c1ccc(NC(=O)CN2CCC(NC(=O)c3ccco3)CC2)cc1	1.1	35	-4	x	-4	-4
O=C(Nc1cccc2c1CCCC2)C1CCCN(S(=O)(=O)c2cccc3nonc23)C1 (stereo not given)	0.7	1	-1	6	14	-6
COc1ccc(/C=C2/C(=N)N3N=C(CC(=O)N4CCCC4)SC3=NC2=O)cc1	0.2	-10	-2	1	13	-9
CC1(C)CC(=O)C2=C(C1)N1C(=C(C#N)C2c2ccccc2Cl)N=C(N)c2ccccc21 (stereo not given)	2.2	26	u	-20	-8	-3
Cn1c(CNC(=O)c2ccccc2F)nnc1SCc1ccc(Cl)cc1	0.2	-1	-3	10	-8	2
Cc1cccc(C2=NC(C(F)(F)F)(C(F)(F)F)c3c(n(-c4ccc(F)cc4)c(=O)[nH]c3=O)N2)c1	2.6	20	6	-4	8	-1
CCC(c1nnnn1C1CCCC1)N1CCN(C(=O)c2ccco2)CC1 (stereo not given)	1.8	-17	11	5	-6	-9
Cc1ccc(S(=O)(=O)NCCC(=O)Nc2ccc(Cl)c(Cl)c2)cc1	2.3	-7	2	1	5	-16
CCOc1ncccc1C(=O)OCC(=O)NC1CCCCCC1	0.6	-7	7	6	-12	-22
Clc1ccc(Sc2cnc3ccccc3n2)cc1	1.2	4	54	53	-3	-19
Nc1cc(Nc2ccc(Br)cc2)nc(N)n1	0.6	-17	-6	-1	18	-1
COc1ccc(S(=O)(=O)N(C)CC(=O)NC2CCCC2)cc1OC	-0.3	-4	2	-4	-2	8

No new results follow: 12 of the compounds above.
SMILES	TRPML1 agonist	TRPML1 inh	Six1-Eya2 inh	CtBP-E1A blk	TRPV1 potentiator	D2 PAM
COC(=O)c1ccc(NC(=O)CN2CCC(NC(=O)c3ccco3)CC2)cc1	1.1	35	-4	x	-4	-4
O=C(Nc1cccc2c1CCCC2)C1CCCN(S(=O)(=O)c2cccc3nonc23)C1 (stereo not given)	0.7	1	-1	6	14	-6
COc1ccc(/C=C2/C(=N)N3N=C(CC(=O)N4CCCC4)SC3=NC2=O)cc1	0.2	-10	-2	1	13	-9
CC1(C)CC(=O)C2=C(C1)N1C(=C(C#N)C2c2ccccc2Cl)N=C(N)c2ccccc21 (stereo not given)	2.2	26	u	-20	-8	-3
Cn1c(CNC(=O)c2ccccc2F)nnc1SCc1ccc(Cl)cc1	0.2	-1	-3	10	-8	2
Cc1cccc(C2=NC(C(F)(F)F)(C(F)(F)F)c3c(n(-c4ccc(F)cc4)c(=O)[nH]c3=O)N2)c1	2.6	20	6	-4	8	-1
CCC(c1nnnn1C1CCCC1)N1CCN(C(=O)c2ccco2)CC1 (stereo not given)	1.8	-17	11	5	-6	-9
Cc1ccc(S(=O)(=O)NCCC(=O)Nc2ccc(Cl)c(Cl)c2)cc1	2.3	-7	2	1	5	-16
CCOc1ncccc1C(=O)OCC(=O)NC1CCCCCC1	0.6	-7	7	6	-12	-22
Clc1ccc(Sc2cnc3ccccc3n2)cc1	1.2	4	54	53	-3	-19
Nc1cc(Nc2ccc(Br)cc2)nc(N)n1	0.6	-17	-6	-1	18	-1
COc1ccc(S(=O)(=O)N(C)CC(=O)NC2CCCC2)cc1OC	-0.3	-4	2	-4	-2	8

Continued.
SMILES	TRPML1 agonist	TRPML1 inh	Six1-Eya2 inh	CtBP-E1A blk	TRPV1 potentiator	D2 PAM
CCCCn1nnnc1C(c1ccccc1)N1CCN(c2ncc(C(F)(F)F)cc2Cl)CC1 (stereo not given)	68*	x	0	0	x	x
COc1ccc(C2=NNC(=O)C2(C)Br)cc1 (stereo not given)	-0.4	-10	5	-1	x	-10
COc1ccc(S(=O)(=O)NCC2CCC(C(=O)NCc3ccco3)CC2)cc1 (stereo not given)	-0.9	-11	16	-10	2	14
CCc1ccccc1NC(=S)NCc1cccn1C	-0.3	-8	-11	0	-8	-21
CCOC(=O)c1c(-c2ccc(-c3ccccc3)cc2)csc1NC(=O)CCN1CCOCC1	1.6	35	-9	-7	-1	-15
COc1ccccc1CC(=O)NC1CC(C)(C)NC(C)(C)C1	0.2	9	3	5	4	-9
CC(C)OC(=O)N(C)C[C@@H]1OCc2cnnn2CCCC(=O)N([C@@H](C)CO)C[C@H]1C	0.2	-20	5	-3	x	0
CCc1ccccc1NC(=S)N(Cc1ccco1)C(C)c1cccs1 (stereo not given)	-0.4	13	-5	2	-15	-2
CCOCCCNC(=S)N1CCN(C(=O)C(=O)Nc2ccc(C(=O)OC)cc2)CC1	0.5	0	0	-8	-7	-1
CCOC(=O)Nc1sc(NS(=O)(=O)c2ccccc2)nc1C	-0.1	53	0	-21	5	86*
O=C(O)C1CCCC2CN3CCc4c([nH]c5ccccc45)C3C(O)C21 (stereo not given)	1.3	17	-16	-14	4	-15
C(=C\c1ccco1)/C1=NN(c2ccccc2)C(c2ccco2)C1 (stereo not given)	1.4	5	83	80	11	7
CCN(CC(=O)NCc1cccs1)C(=O)c1ccc(NS(=O)(=O)c2ccc(C(C)=O)cc2)cc1	-0.2	10	5	0	-2	-12
CCOC(=O)C1=C(Cc2ccc(OC)cc2)C(=O)c2ccccc2C1=O	8.0	5	-5	-6	4	0
CC(NC(=O)COC(=O)C1CC1C)c1ccccc1 (stereo not given)	3.4	21	6	13	x	-2
O=C(OCCN1C(=O)c2ccccc2C1=O)c1ccco1	2.6	6	6	4	7	-11
CCOC(=O)Cc1csc(NC(=O)Cn2cnc3c2c(=O)n(C)c(=O)n3C)n1	2.0	-1	-2	x	3	-2
CCN(CC)S(=O)(=O)c1ccc(O)c(C(=O)OCC(=O)N(C)Cc2ccccc2)c1	0.7	-3	-9	-1	15	-8
CC1OC(Nc2ccc(OC(F)(F)F)cc2)C(O)C(O)C1O (stereo not given)	-0.7	-5	1	-1	0	-2
O=C(/C=C/c1ccccc1)N1CCN(c2ccc([N+](=O)[O-])c(N3CCOCC3)c2)CC1	1.1	-5	-12	-3	-5	-1
CCOC(=O)C1=CCN(S(=O)(=O)c2ccccc2F)C1c1ccc(Cl)c(Cl)c1 (stereo not given)	2.4	-6	1	-1	x	-6
Cc1cccc(N2C(=O)N3[C@@H]4c5ccccc5OC[C@@H]4[C@@H](c4ccccc4)[C@]3(C)C2=O)c1	1.0	73	-10	-2	-9	29
Cc1ccc(NC(=O)C2CC(=O)NC(N3CCc4ccccc43)=N2)cc1 (stereo not given)	0.2	3	16	0	u	-11
COc1ccc(NC(=O)CC2CC3CCC2C3)cc1S(=O)(=O)N1CCOCC1 (stereo not given)	0.3	-11	2	-2	x	-16
CC(C)c1cc(=O)n2[nH]c(SCc3ccccc3Cl)nc2n1	1.8	20	-1	10	9	22
COc1cc(C2C3C(=O)N(c4ccccc4)C(=O)C3ON2c2ccccc2)cc(OC)c1OC (stereo not given)	-0.1	33	-7	1	-1	-2
Cc1c(O)ccc2c(CC(=O)N[C@@H](Cc3ccc(O)cc3)C(=O)O)cc(=O)oc12	0.2	7	-12	-8	-9	-10
O=C(NC1CC2CCCC(C1)N2S(=O)(=O)c1ccccc1)C1CCCCC1 (stereo not given)	-0.6	10	4	11	-26	-5
COc1ccc(N=Cc2c(O)c3ccccc3n2C(C)=O)cc1	12	3	-4	x	-8	-18
CC1(C)Cc2c(sc(/N=C/N3CCCCCC3)c2C#N)C(C)(C)N1	0.2	82	-2	6	-1	-1
CCOC(=O)N1CCN(CC(O)COC2CC(C)CCC2C(C)C)CC1 (stereo not given)	1.6	-16	-1	-7	-8	-28
Cc1c(Cl)cccc1N1CC(C)(C)C1=O	52*	-17	5	6	10	-2
O=c1c(O)c(-c2ccccc2)oc2ccccc12	x	x	8	10	x	-31
